Screening results from PubChem BioAssay.
Choline anaer gr – choline-fed anaerobic bacterial growth inhibition; Gram-negative bacterium anaerobic choline minimal medium, absorbance growth; stronger effect = lower value; many inactives read as strong as hits in the columns shown; hit rate 0.2% among 55,000; calls only; AID 1963822;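 active = growth z-score on choline under -2 at 7 or 20 h with little or no fall on glycerol, limits in tiers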;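 note: stock transfer was 300 nL into about 50 µL; the organism is E. coli; final concentration not given here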
Choline anaer gr early – further read-out of Choline anaer gr, marked with its call; z-score; measured here: choline growth z-score, timepoint 1;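 score of optical density at 7 h as mean of two plates; lower means less growth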
An asterisk follows results filed as active; i = inactive; & = joins results of further samples.

CCc1nc(-c2cc(S(=O)(=O)N3CCN(c4ccccn4)CC3)c(C)s2)no1
  Choline anaer gr: i; Choline anaer gr early: -0.16
CC(C)n1c(=O)[nH]c2cc(-c3noc(/C=C/c4ccccc4Cl)n3)ccc21
  Choline anaer gr: i; Choline anaer gr early: -0.04
CC1(C(=O)NC2CCCCC2)Cn2c(c(-n3cccc3)c3ccccc32)C(=O)N1Cc1ccccn1 (stereo not given)
  Choline anaer gr: i; Choline anaer gr early: -0.2
O=C1c2ccccc2C(=O)N1c1nc2n(n1)C(c1ccc(F)cc1)C=C(c1ccccc1)N2 (stereo not given)
  Choline anaer gr: i; Choline anaer gr early: 0.24
CCOC(=O)CNC(=O)NC1CCN(c2nc3ccccc3n(CC(C)C)c2=O)CC1
  Choline anaer gr: i; Choline anaer gr early: 1.5
Cc1cccc(NC(=O)c2cccn3c(-c4ccc(F)cc4)nnc23)c1
  Choline anaer gr: i; Choline anaer gr early: 2.1
Cc1cc(Cl)ccc1OCC(=O)Nc1ccnn1C1CCCC1
  Choline anaer gr: i; Choline anaer gr early: 0.95
CCCNC(=O)N1CCc2c(c(COCc3ccc(F)cc3Cl)nn2C)C1
  Choline anaer gr: i; Choline anaer gr early: 0.12
COc1ccc(C2C(S(=O)(=O)c3ccccc3)=C(O)C(=O)N2c2ccc(Cl)cc2)cc1 (stereo not given)
  Choline anaer gr: i; Choline anaer gr early: -0.31
CC1(C)CC(=O)C2=C(C1)Nc1ccccc1N(CC(=O)Nc1ccc(F)cc1)C2c1ccccc1 (stereo not given)
  Choline anaer gr: i; Choline anaer gr early: -1.4

CCCSc1nc2c(sc(=S)n2-c2ccc(OCC)cc2)c(=O)[nH]1
  Choline anaer gr: i; Choline anaer gr early: 3.1
CC1CCN([C@H]2CS(=O)(=O)C[C@@H]2S(=O)(=O)c2cccs2)CC1
  Choline anaer gr: i; Choline anaer gr early: -1.8
Cc1ccc2nc(CCc3cccc(NC(=O)c4cccnc4)c3)[nH]c2c1
  Choline anaer gr: i; Choline anaer gr early: -1.1
Brc1ccc(C(c2nnc(-c3ccccc3)o2)N2CCN(c3ccccn3)CC2)cc1 (stereo not given)
  Choline anaer gr: i; Choline anaer gr early: -1.3
Cc1ccc(-c2cc3nc(C)cc(N4CCC(C(=O)Nc5ccccc5Cl)CC4)n3n2)cc1
  Choline anaer gr: i; Choline anaer gr early: 0.15
CC(=O)Nc1ccc(S(=O)(=O)N2CCN(c3cc(N(C)C)nc(C)n3)CC2)cc1
  Choline anaer gr: i; Choline anaer gr early: 0.19
CC(C)Cn1c(=O)c2sccc2n2c(CCC(=O)NC3CCCCC3C)nnc12 (stereo not given)
  Choline anaer gr: i; Choline anaer gr early: -0.23
CCN(CC)C(=O)Cn1c(=O)n(CC2CCC(C(=O)NC(C)C)CC2)c(=O)c2sccc21 (stereo not given)
  Choline anaer gr: i; Choline anaer gr early: -0.55
O=C(NCc1ccc(Cl)cc1)C1CCCN(c2nc3ncccc3n3cccc23)C1 (stereo not given)
  Choline anaer gr: i; Choline anaer gr early: 1.9
CCCCC[C@H](O)/C=C/[C@@H]1[C@H](C/C=C\CCCC(=O)O)[C@@H](O)C[C@H]1O
  Choline anaer gr: i; Choline anaer gr early: 0.03&0.31

Ordered by number of heavy atoms (high to low): part of the list above
CC1(C(=O)NC2CCCCC2)Cn2c(c(-n3cccc3)c3ccccc32)C(=O)N1Cc1ccccn1 (stereo not given)
  Choline anaer gr: i; Choline anaer gr early: -0.2
CC1(C)CC(=O)C2=C(C1)Nc1ccccc1N(CC(=O)Nc1ccc(F)cc1)C2c1ccccc1 (stereo not given)
  Choline anaer gr: i; Choline anaer gr early: -1.4
O=C1c2ccccc2C(=O)N1c1nc2n(n1)C(c1ccc(F)cc1)C=C(c1ccccc1)N2 (stereo not given)
  Choline anaer gr: i; Choline anaer gr early: 0.24
CCN(CC)C(=O)Cn1c(=O)n(CC2CCC(C(=O)NC(C)C)CC2)c(=O)c2sccc21 (stereo not given)
  Choline anaer gr: i; Choline anaer gr early: -0.55
Brc1ccc(C(c2nnc(-c3ccccc3)o2)N2CCN(c3ccccn3)CC2)cc1 (stereo not given)
  Choline anaer gr: i; Choline anaer gr early: -1.3
O=C(NCc1ccc(Cl)cc1)C1CCCN(c2nc3ncccc3n3cccc23)C1 (stereo not given)
  Choline anaer gr: i; Choline anaer gr early: 1.9
CC(=O)Nc1ccc(S(=O)(=O)N2CCN(c3cc(N(C)C)nc(C)n3)CC2)cc1
  Choline anaer gr: i; Choline anaer gr early: 0.19
CCc1nc(-c2cc(S(=O)(=O)N3CCN(c4ccccn4)CC3)c(C)s2)no1
  Choline anaer gr: i; Choline anaer gr early: -0.16
Cc1ccc2nc(CCc3cccc(NC(=O)c4cccnc4)c3)[nH]c2c1
  Choline anaer gr: i; Choline anaer gr early: -1.1
Cc1cccc(NC(=O)c2cccn3c(-c4ccc(F)cc4)nnc23)c1
  Choline anaer gr: i; Choline anaer gr early: 2.1
CCCCC[C@H](O)/C=C/[C@@H]1[C@H](C/C=C\CCCC(=O)O)[C@@H](O)C[C@H]1O
  Choline anaer gr: i; Choline anaer gr early: 0.03&0.31
CCCSc1nc2c(sc(=S)n2-c2ccc(OCC)cc2)c(=O)[nH]1
  Choline anaer gr: i; Choline anaer gr early: 3.1

Cc1cc(Cl)ccc1OCC(=O)Nc1ccnn1C1CCCC1
  Choline anaer gr: i; Choline anaer gr early: 0.95
CC1CCN([C@H]2CS(=O)(=O)C[C@@H]2S(=O)(=O)c2cccs2)CC1
  Choline anaer gr: i; Choline anaer gr early: -1.8

The listing continues:
O=C(NCc1ccc2c(c1)OCO2)C1CCN(c2cc(C(=O)N3CCCC3)ccn2)CC1
  Choline anaer gr: i; Choline anaer gr early: 0.31
O=C(C1CCCN(c2nc3ncccc3n3cccc23)C1)N1CCN(c2ccccn2)CC1 (stereo not given)
  Choline anaer gr: i; Choline anaer gr early: -2.5
O=C(CCn1cnc2ccccc2c1=O)N1CCN(c2ccccc2)CC1
  Choline anaer gr: i; Choline anaer gr early: -0.28
N[C@@H](CCCC(=O)O)C(=O)O
  Choline anaer gr: i; Choline anaer gr early: 0.55
O=C(NCCN1CCN(c2ccccc2F)CC1)c1cccc(-c2nc(-c3ccccc3)no2)c1
  Choline anaer gr: i; Choline anaer gr early: -0.92
O=C(CCC1CCCC1)N1CCc2c([nH]c3ccccc23)C1c1cccnc1 (stereo not given)
  Choline anaer gr: i; Choline anaer gr early: -0.93
O=C(NCc1ccc(F)cc1)C1CC=C(c2c[nH]c3ccccc23)CC1 (stereo not given)
  Choline anaer gr: i; Choline anaer gr early: 0.27
Cc1ccccc1CSc1ncnc2nc[nH]c12
  Choline anaer gr: i; Choline anaer gr early: 0.06
CCc1nnc(C(=O)Nc2cccc(C(=O)NCc3ccccc3)c2)s1
  Choline anaer gr: i; Choline anaer gr early: 1.1
Cn1cc(CCC(=O)N2CCC(N3CCCCC3)CC2)c(-c2ccc(F)cc2)n1
  Choline anaer gr: i; Choline anaer gr early: 0.42

Further structures follow:
Results follow in this order: Choline anaer gr	Choline anaer gr early
> COc1ccc(C2CC(=O)N(c3ccc(F)c(Cl)c3)C(=O)C2)cc1
→ i	-0.48
> COc1ccccc1N1CCN(c2ncnc3c2CCC3)CC1
→ i	0.31
> COc1ccc(N2C=NS(=O)(=O)c3cccnc32)cc1
→ i	-0.02
> CN(C)CCCn1c(=O)c2[nH]cnc2n(C)c1=O
→ i	0.62
> COc1ccccc1Nc1ncnc2sc(C)c(S(=O)(=O)N3CCCCC3)c12
→ i	-0.23
> CC1CN(C(=O)C2CCN(S(=O)(=O)c3cccnc3)CC2)c2ccccc2O1 (stereo not given)
→ i	-0.78
> CCc1ccc(S(=O)(=O)Nc2ccc(-c3nnc(Cc4ccc(C)cc4)o3)cc2)cc1
→ i	-1.6
> Clc1cc(Cl)cc(-c2ccc(CNCc3ccccn3)o2)c1
→ i	-0.26
> CN(CCCNC(=O)c1nnc(C(=O)Nc2ccccc2)s1)c1ccccc1
→ i	1.2
> Cn1c(CN2CCN(C(=O)c3ccc4c(c3)OCO4)CC2)nc2cc(C(=O)N3CCCC3)ccc21
→ i	-0.33
> CS(=O)(=O)Nc1ccc(N2CCC(C(N)=O)(N3CCCCC3)CC2)cc1C(=O)O
→ i	0.79
> CC1CCN(C(=O)C2CCCN(c3ncc(-c4ccc(F)cc4)cn3)C2)CC1 (stereo not given)
→ i	1.5
> Cc1noc(COC2CCCN(S(=O)(=O)C3CC3)C2)n1 (stereo not given)
→ i	-0.41
> CN(C)CCN(C(=O)c1ccc2c(c1)OCCO2)c1nc2ccc(Cl)cc2s1
→ i	-0.54
> CN=c1nc(-c2ccccc2)n(-c2ccccc2)s1
→ i	-0.9&-0.84

3 entries already listed, arranged by the value under Choline anaer gr early, lowest first:
| structure | Choline anaer gr early |
| --- | --- |
| O=C(NCCN1CCN(c2ccccc2F)CC1)c1cccc(-c2nc(-c3ccccc3)no2)c1 | -0.92 |
| COc1ccccc1N1CCN(c2ncnc3c2CCC3)CC1 | 0.31 |
| CN(C)CCCn1c(=O)c2[nH]cnc2n(C)c1=O | 0.62 |

Following part
Results follow in this order: Choline anaer gr	Choline anaer gr early
> CCOC(=O)C(C)NC(=O)N1CCCC1c1c(C)noc1CC (stereo not given)
→ i	0.57
> Cc1cc(C)c2oc(C(=O)Nc3sc4c(c3C(=O)NCC3CCCO3)CCC4)cc(=O)c2c1 (stereo not given)
→ i	0.7
> Oc1ccc(CN2CCCC2c2ccc(Cl)cc2)cc1 (stereo not given)
→ i	-1.1
> CCCCCCCCC#CCC#CCC#CCCCC(=O)O
→ i	0.74
> Cc1cccc(N2C(=O)c3nccnc3C2=O)c1
→ i	-0.24
> O=C(NCCN1CCCCC1)C1CCCN(c2ccnc(-c3ccc(F)cc3)n2)C1 (stereo not given)
→ i	-1.2
> COc1ccc(N2CC(NC(=O)C3CCCC3)CC2=O)cc1 (stereo not given)
→ i	-0.83
> CCC(=O)Nc1nc2ccc(CC(=O)Nc3ccc(OC)c(Cl)c3)cc2s1
→ i	1.4
> Cc1ccc(F)cc1S(=O)(=O)N1CCCC(C)(C(=O)NCc2ccc(F)cc2)C1 (stereo not given)
→ i	-0.44
> CCCn1c(CN2CCN(CC)CC2)nc2cc(NC(C)=O)ccc21
→ i	0.65
> O=C(CC1CCCCC1)Nc1cc(F)c2nc(N3CCOCC3)ccc2c1
→ i	1.3
> O=C(c1cnc2ccccc2c1Nc1ccccc1Cl)N1CCOCC1
→ i	-0.84
> COC(=O)CN1C(=O)CSc2ccc(S(=O)(=O)NC3CCCCC3)cc21
→ i	-1.2
> CCc1ccc(-c2noc(CSc3nc4cc5c(cc4c(=O)n3CC3CCCO3)OCO5)n2)cc1 (stereo not given)
→ i	1
> O=C(c1cnc2ccccc2c1S(=O)(=O)c1cccc(F)c1)N1CCSCC1
→ i	-0.73

An excerpt; the hit share may differ from the screen's.
